FGF22 binding – FGF22 (human) thermal shift binding | calls only at 9.99 µM | hit rate 1.5% among 340,000 | recombinant FGF22 thermal shift, SYPRO orange fluorescence; percent of sucrose octasulfate shift, DMSO zero;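 active = melting point raised past a set limit in the mean and every replicate; inconclusive = no clear call; three in four hits are not shown here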
Target sequence (Q9HCT0 whole entry, looked up): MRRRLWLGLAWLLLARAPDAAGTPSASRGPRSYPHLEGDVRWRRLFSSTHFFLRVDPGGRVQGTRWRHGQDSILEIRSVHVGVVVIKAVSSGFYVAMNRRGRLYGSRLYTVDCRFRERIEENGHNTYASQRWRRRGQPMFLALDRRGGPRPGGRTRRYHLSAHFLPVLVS
Ecoli growth – blocks Escherichia coli growth; hit rate 0.21% among 330,000; OD600 absorbance (test concentration not listed); OD600, 23 h; hits give low values; AID 1053175;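 active = OD600 absorbance below the run mean of sample wells minus 3.6 SD, in any replicate, cut at about 0.56 in these data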;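 note: stock transfer was 300 nL into about 60 µL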
RanGTP-Imp inh – disruptors of Ran-importin-beta complex formation – biochemical, FRET, CFP-Ran, YFP-importin-beta, homogeneous, primary screen; cell-free CFP-Ran/YFP-importin-beta FRET ratio; inhibition, % (concentration not given with the values); hit rate 1.1% among 300,000;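 active = most replicates above 15%; inconclusive = exactly half above 15%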;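 note: 0% = DMSO wells and 100% = Ran loaded with GDP instead of GTP; wells of about 40 µL received 100 nL stock; the first replicate is given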
UCH37 inh – inhibitors of human deubiquitinating enzyme UCH37; Q9Y5K5; purified proteasome/UCH37, Ub-AMC cleavage fluorescence; inhibition, % (concentration not given with the values); hit rate 0.33% among 330,000;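 active = mean of two replicates above 20%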;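 note: 0% = compound-free wells with enzyme and 100% = wells lacking proteasome; stock transfer was 100 nL into about 20 µL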
Target sequence (Q9Y5K5 whole entry, looked up): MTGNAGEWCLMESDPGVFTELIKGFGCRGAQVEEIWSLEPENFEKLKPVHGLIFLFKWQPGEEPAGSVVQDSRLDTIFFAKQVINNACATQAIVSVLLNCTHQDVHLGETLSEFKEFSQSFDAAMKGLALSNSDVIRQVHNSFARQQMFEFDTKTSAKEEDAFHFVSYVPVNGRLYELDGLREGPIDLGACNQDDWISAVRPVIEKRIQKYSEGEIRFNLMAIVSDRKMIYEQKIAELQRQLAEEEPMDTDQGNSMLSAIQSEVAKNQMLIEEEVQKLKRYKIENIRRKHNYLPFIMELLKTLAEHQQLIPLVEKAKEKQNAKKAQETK
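Material: Human UCH37 enzyme supplied as purified proteasome complex | Schedule: 30 min compound-proteasome preincubation then 25 min substrate reaction, room temperature | Detection: AMC fluorescence from Ub-AMC cleavage, excitation 355 nm, emission 460 nm | Benchmarks: Wells without proteasome as full block, compound-free enzyme plus substrate as uninhibited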
Vif TR-FRET – inhibitors of Vif binding to APOBEC3G peptide, primary screen, biochemical, TR-FRET, GST-Vif 1-94, biotin-A3G peptide, dose response retest (AID 1117319); TR-FRET GST-Vif / biotin-A3G peptide binding; higher % means a stronger effect; test concentration not given here; strong numbers were not always called active; inhibition, %, or IC50 in µM where a hit was titrated; hit rate 0.57% among 260,000;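 active = above the screen mean plus three standard deviations and confirmed in dose response; inconclusive = results disagree or hit not tested in dose response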;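 note: Vif residues 1-94 fused to GST binding biotinylated APOBEC3G peptide 110-148; 0% = full assay without inhibitor and 100% = GST in place of GST-Vif; retest series ran down from 100 µM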
HNF4A DNA FP – change in binding of human HNF4 alpha to DNA | HNF4a-FITC DNA binding, fluorescence polarization, 1 h | hit rate 0.3% among 360,000 | activity change, % at 10 µM; in the data active = activity change above about 30%, passing the limit was not always enough;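 note: controls were the assay level and a saturating level of protein; the project sought stronger binding though the title names inhibitors; some compounds called inactive have numbers as strong as hits; positive values seem to mean higher polarization but the record does not say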
MLL AF4-AF9 inh – MLL-AF4/AF9 protein interaction inhibition | P42568 | AlphaScreen, biotin-AF4 peptide binding to FLAG-AF9 | inhibition, % at 10 µM | hit rate 0.47% among 350,000 | AID 651704;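 active = every replicate reaching a set inhibition limit, whatever the replicate mean, cut at about 25% in these data; inconclusive = mean inhibition reaches that limit but some replicates miss it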;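 note: 0% = plate neutral control median and 100% = total signal loss; the record names both 10 and 1 µM as test concentration; the first replicate is given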
Target sequence (P42568 whole entry, looked up): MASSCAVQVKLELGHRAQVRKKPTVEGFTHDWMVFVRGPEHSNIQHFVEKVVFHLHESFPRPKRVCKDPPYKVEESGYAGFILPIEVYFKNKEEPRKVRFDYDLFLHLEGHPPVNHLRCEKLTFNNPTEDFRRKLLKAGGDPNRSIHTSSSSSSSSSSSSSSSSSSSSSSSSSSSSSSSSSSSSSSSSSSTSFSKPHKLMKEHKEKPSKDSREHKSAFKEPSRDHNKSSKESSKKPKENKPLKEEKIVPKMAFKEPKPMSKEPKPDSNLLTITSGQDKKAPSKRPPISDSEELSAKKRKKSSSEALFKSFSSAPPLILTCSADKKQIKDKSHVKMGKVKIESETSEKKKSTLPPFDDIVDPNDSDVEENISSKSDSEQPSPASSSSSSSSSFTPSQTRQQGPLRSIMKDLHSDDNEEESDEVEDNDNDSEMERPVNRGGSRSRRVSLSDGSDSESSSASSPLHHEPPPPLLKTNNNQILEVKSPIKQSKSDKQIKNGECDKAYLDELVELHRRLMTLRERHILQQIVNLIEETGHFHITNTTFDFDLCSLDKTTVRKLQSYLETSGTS
An asterisk follows results filed as active; i = inactive; ? = inconclusive; / = no result given; & = joins results of further samples. Some of the compounds tested; the hit share may differ from the screen's.

FGF22 binding	Ecoli growth	RanGTP-Imp inh	UCH37 inh	Vif TR-FRET	HNF4A DNA FP	MLL AF4-AF9 inh	molecule
i	/	7.0	/	8.3%	-2.8	0.9	C/C(=N\NC(=O)c1c(Br)cnn1C)c1ccc(NC(=O)c2ccc(F)cc2)cc1
i	0.685	8.8	2.6	-2.4%	0.5	0.2	COc1cc(C2NC(=O)CCC2[N+](=O)[O-])c(OC)cc1Br (centres undefined)
i	/	0.9	/	-16.4%	-2.3	-6.4	C=CCNC(=S)/N=c1/ccccn1CC
i	0.672	-0.6	-4.2	-6.5%	3.2	1.2	CN(C)CCCNC(=O)C1(O)c2cc(Br)ccc2NC(=O)N1c1c(F)cccc1F (centres undefined)
i	0.714	4.3	-0.7	/	3.0	-0.5	Cc1ccc(SCc2nc(N)nc(Nc3ccccc3C)n2)cc1C
i	0.668	-5.4	4.3	7.0%	-0.5	-3.7	Cc1cc(Cl)c(S(=O)(=O)N2CCCC2)cc1OCC(N)=O
/	0.638	0.0	1.2	9.4%	-1.2	/	Cc1cc(=O)n(CC=C(Cl)Cl)c2ccccc12
i	0.633	-0.1	3.0	-1.7%	4.9	7.8	CC(C)N(Cc1nc(-c2ccc(Cl)cc2)no1)Cc1nccn1C
i	0.658	2.7	-0.8	0.3%	-0.1	-13.0	COCCCN(C(=O)c1ccc(N2CCCC2=O)cc1)c1c(N)n(Cc2ccccc2)c(=O)[nH]c1=O
/	0.704	-2.5	2.7	0.0%	0.9	/	Cc1cc(C)c(O)c(-c2cc(C(=O)Nc3ccc(S(=O)(=O)N4CCOCC4)cc3)[nH]n2)c1
i	0.713	-0.1	-6.4	-1.2%	-3.6	0.2	CCOC(=O)c1[nH]c2ccccc2c1NC(=O)C(CC)CC
/	0.689	3.4	5.6	5.0%&-4.4%	4.7	/	O=C(Cn1nnc(-c2ccc(S(=O)(=O)N3CCCC3)cc2)n1)NCC1CCCO1 (centres undefined)
i	0.657	-0.6	3.3	3.7%	-1.2	-0.2	COc1ccc(CCN2C(=O)CC(C(N)=O)SC2=Nc2ccccc2)cc1OC (centres undefined)
i	0.684	1.8	0.6	-1.5%	-4.6	-8.8	CCOc1ccccc1C(=O)NCC(=O)OCCOc1cccc(Cl)c1
i	0.644	-3.5	7.9	17.8%	-3.1	-0.4	CC(=O)c1c(C)[nH]c(C2=NNC(=NC(C)(C)C)SC2)c1C
i	0.712	0.3	3.6	-7.8%	-2.6	1.5	Cc1ccnc(NC(=O)CNC(=O)c2cccs2)c1
i	/	/	/	/	2.5	-1.9	O=C(CN1C(=O)NC2(CCCc3ccccc32)C1=O)Nc1ccccc1OC(F)F (centres undefined)
/	0.696	2.2	5.8	3.5%	1.1	/	CCCN1CCC(=NNC(=O)CSc2cc(C)c(Br)cc2C)CC1
/	0.73	2.3	-0.3	-6.8%	-1.1	/	CSc1nc(NC(C)(C)C)nc(N2CCOCC2)n1
i	/	4.8	/	-2.8%	-1.1	4.0	Cn1c(SCC(=O)N/N=C/c2ccccn2)nnc1-c1ccccc1
/	0.673	6.2	0.0	0.8%	-1.2	/	CCOC(=O)c1c(C)nc2ccc(C)cn12
/	/	-3.0	/	10.9%	0.6	/	C/C(=N\O)c1ccc2[nH]ccc2c1
i	0.716	4.2	0.9	1.4%	-1.7	-1.7	NS(=O)(=O)c1ccc(NC(=S)N2CCCC2)cc1
i	0.611	-3.1	5.0	-10.0%	-1.7	1.5	Cc1ccc(-c2nnc(N3CCCCC3)c3ccccc23)cc1
i	0.683	1.8	-129.9	/	2.2	-1.1	O=C1c2ccccc2NC(c2ccccc2)N1NS(=O)(=O)c1ccccc1 (centres undefined)
i	0.675	-1.8	7.3	-1.0%	0.0	3.6	O=c1c2cn[nH]c2nc(SCc2ccccc2F)n1-c1ccc(Br)cc1
/	0.674	-4.2	2.9	-5.9%	4.8	/	CC(C)(C)c1cc(CCC(=O)N2CCNCC2)c(C(C)(C)C)cc1O
/	0.736	1.7	-5.7	-1.5%	1.0	/	c1csc(C2=Nn3c(nnc3-c3ccncc3)SC2)c1
/	0.784	-0.9	1.8	2.0%	0.1	/	CCCCNC(=O)OCC(CC)NC(=O)OC(C)C (centres undefined)
i	/	/	/	/	-2.5	-1.5	Cc1ccccc1-n1nc2c(c1NC(=O)C1CC1)CS(=O)(=O)C2

Later entries:
FGF22 binding	Ecoli growth	RanGTP-Imp inh	UCH37 inh	Vif TR-FRET	HNF4A DNA FP	MLL AF4-AF9 inh	molecule
/	0.677	-2.3	2.9	2.2%	2.6	/	CCOC(=O)C1CCCN(Cc2ccccc2Cl)C1 (centres undefined)
i	0.704	-2.2	0.3	/	-1.5	-0.2	CCCCc1ccc(Nc2nc(N3CCOCC3)nc(N3CCOCC3)n2)cc1
/	0.691	-1.0	3.7	21.9%	0.3	/	C=CCSc1nc(O)c(CC)c(=O)n1C(C)CC (centres undefined)
i	0.656	1.4	3.4	/	-2.9	-3.1	O=C(CCC(=O)N(CC(=O)NC1CCCCC1)c1ccc(F)cc1)Nc1ccccn1
i	/	/	/	/	-1.4	-2.5	CC1CCCN(CC(=O)Nc2ccc(S(=O)(=O)N3C(C)CCCC3C)cc2)C1 (centres undefined)
i	0.685	-0.3	1.0	-3.3%	-3.8	12.8	CCOC(=O)C1CCN(C(=O)c2cccc(C(=O)N3CCC(C(=O)OCC)CC3)c2)CC1
i	/	-3.8	/	/	3.5	-0.2	C/C(=N\OCC(=O)Nn1c(=O)[nH]c2ccccc2c1=O)c1ccccc1
/	0.706	-2.2	-1.9	-6.4%	-1.0	-1.1	O=C(NCCOc1ccccc1Cl)C(=O)NCCOc1ccccc1Cl
i	0.697	/	-2.0	-5.7%	3.2	-2.4	CCOC(=O)c1cc2c(c(CCO)n1)[C@@H](CCO)N(S(=O)C(C)(C)C)C2 (some centres undefined)
i	0.678	-20.9	4.4	4.2%	1.2	3.1	O=C(C[n+]1ccc2ccccc2c1)c1ccccc1
/	0.66	1.2	-2.5	-3.8%	0.9	/	CC(C)CNC(=O)c1cc2nc(C3CC3)cc(C(F)(F)F)n2n1
i	0.696	5.4	1.4	/	0.7	3.8	COc1ccc(NC(=O)CN(c2ccccc2F)S(=O)(=O)c2ccc(C)cc2)cc1
/	0.633	/	-49.2	2.4%	1.4	/	Cc1ccc(O)c(C(=O)c2cnn(C(=O)Cc3csc(C)n3)c2)c1
i	0.745	4.3	2.6	-2.0%	-0.1	-1.6	O=C(Nc1ccc(F)cc1)Nc1ccc2c(c1)CCC2
/	0.715	?	0.0	/	2.3	/	CCC(=O)NNc1ccc(Br)cc1
i	0.696	/	3.5	2.5%	8.8	-8.3	Cc1cccc(NC(=O)CSCC(=O)N2CCN(Cc3ccc4c(c3)OCO4)CC2)c1
i	0.662	4.3	0.7	/	4.7	0.6	Fc1ccc(-c2csc3ncnc(Cl)c23)cc1
/	0.705	3.4	3.6	3.7%	1.5	/	CCCc1ccc(OCc2ccc(C(=O)O)o2)c(OC)c1
/	0.679	-3.4	-4.0	7.6%	-2.4	-8.9	COCCCn1c(SCC(=O)O)nc2cc(OC)c(OC)cc2c1=N
i	0.71	2.9	-0.7	/	11.1	4.0	CC(=O)c1ccc(S(=O)(=O)NCc2ccc(C(=O)NCC(c3ccccc3)N(C)C)cc2)cc1 (centres undefined)
i	0.704	-2.2	0.6	/	-3.7	3.6	COc1ccc(C)cc1N(C(=O)COc1cccc(F)c1)c1nc2ccccc2s1
i	/	/	/	/	-2.1	-1.4	CCc1nc2c(OCC(=O)C(C)(C)C)cccn2c1N(C)C(=O)c1ccc(C)cc1
/	0.657	-4.6	1.9	-9.3%	2.1	/	CCn1ccnc1C(O)c1cccc(OC)c1 (centres undefined)
i	0.656	/	3.5	0.6%	1.1	-19.3	NC(=O)C1CCCN(C(=O)c2ccc(-c3cccc(Cl)c3Cl)o2)C1 (centres undefined)
i	0.65	-5.3	0.4	2.5%	-0.9	-1.8	O=C(Nc1cccc(C(F)(F)F)c1)C1CCN(S(=O)(=O)c2ccc(N3CCCC3=O)cc2)CC1
/	0.702	8.8	1.6	-2.6%	2.7	/	COC(=O)Cc1csc(Nc2ccc(Cl)cc2)n1
i	0.646	3.5	5.4	/	0.3	-1.2	CCn1c(SCc2ccc(OC)c(F)c2)nc2ccccc2c1=O
i	/	/	/	/	-1.9	-4.1	OC(c1ccccc1)(c1nc(-c2ccc(F)c(Cl)c2)cs1)C(F)(F)F (centres undefined)
/	0.748	3.0	-16.2	-6.2%&7.0%	1.1	/	COc1ccccc1NC(=O)N(Cc1cc2cc(OC)c(OC)cc2[nH]c1=O)CC1CCCO1 (centres undefined)
i	0.646	-2.8	-8.4	/	0.4	2.0	CCc1ccc2nc(N=C(N)N)nc(C)c2c1

Some of these compounds in order of SMILES length, smallest number first.
FGF22 binding	Ecoli growth	RanGTP-Imp inh	UCH37 inh	Vif TR-FRET	HNF4A DNA FP	MLL AF4-AF9 inh	molecule
i	0.745	4.3	2.6	-2.0%	-0.1	-1.6	O=C(Nc1ccc(F)cc1)Nc1ccc2c(c1)CCC2
i	0.646	3.5	5.4	/	0.3	-1.2	CCn1c(SCc2ccc(OC)c(F)c2)nc2ccccc2c1=O
i	0.697	/	-2.0	-5.7%	3.2	-2.4	CCOC(=O)c1cc2c(c(CCO)n1)[C@@H](CCO)N(S(=O)C(C)(C)C)C2 (some centres undefined)

(more compounds)
FGF22 binding	Ecoli growth	RanGTP-Imp inh	UCH37 inh	Vif TR-FRET	HNF4A DNA FP	MLL AF4-AF9 inh	molecule
i	0.643	/	1.2	/	-1.8	-7.7	COc1ccc(S(=O)(=O)N2CCN(C(=O)c3cc(C)nc4ccccc34)CC2)cc1OC
i	0.735	1.8	7.9	-3.7%	1.9	10.5	O=C(NC1CCCCCCC1)C1CCCN(S(=O)(=O)c2cnc[nH]2)C1 (centres undefined)
/	0.723	-2.8	5.5	-3.7%	0.9	-1.8	CC(C)NC(=O)c1ccccc1NC(=O)Cc1ccc(Br)cc1
/	/	/	/	/	3.4	-5.8	Cc1ccc(NC(=O)c2nc[nH]c2C(=O)Nc2ccccc2F)cc1
i	/	/	/	/	2.4	0.1	O=[N+]([O-])c1cc(Br)ccc1C[n+]1ccccc1
i	0.688	-2.9	0.2	/	-2.4	-3.1	O=C(Nc1ccnn1C1CCN(Cc2ccc(F)cc2)CC1)C1CC1
i	0.62	4.4	0.8	6.3%	0.3	-3.6	COc1cccc(CNC(=O)CSc2ccc(-c3ccccn3)nn2)c1
/	0.73	-1.0	4.4	3.8%	0.9	/	Cc1ccccc1NS(=O)(=O)c1ccc(NC(=O)c2ccco2)cc1
i	/	5.0	/	4.6%	0.0	1.7	O=C(O)COc1ccc(/C=N/NC(=O)c2cn(-c3ccccc3)nc2-c2ccccc2)cc1
/	0.688	-2.6	-0.2	-5.7%	-1.6	/	CC(C)(C)NC(=O)Cn1nnc(-c2ccccc2Cl)n1
i	0.597	3.8	7.8	/	2.6	30.8*	CN(C)CC/C=C1\c2cc(Cl)ccc2Sc2cc(F)c(F)cc21
/	0.67	24.8*	4.8	10.4%	4.7	/	Nc1ccc(O)c(-c2nc3ccccc3s2)c1
/	/	-3.8	/	4.1%	-2.5	/	C/C(=N\O)C1/C(=N/O)CC2C1C2(C)C (centres undefined)
i	0.616	/	0.7	0.2%	1.1	-2.3	Cc1cc(Cl)ccc1OCCCC(=O)NNC(=O)c1ccncc1
i	0.741	-3.2	1.2	/	0.4	-1.1	COc1ccc(C(C)=O)cc1CSc1nc2ccccc2c(=O)n1-c1ccccc1C
i	0.699	2.6	3.2	-3.2%	-1.1	-0.2	COc1ccccc1CCNC(=O)c1nc(-c2cccs2)no1
/	0.733	-3.1	2.0	-1.1%&67.4%	1.8	/	Clc1ccc(-n2ncc3c(NCc4ccccn4)ncnc32)cc1
i	0.707	?	-6.0	5.7%	3.7	47.9*	COc1cccc(CNc2ccc3c(c2)ncn3C(C)C)c1OC

Source: PubChem
